From PubChem BioAssay
CDC25B CDK2 inh: primary biochemical HTRF screen for blockers of M-phase inducer phosphatase 2 binding to CDK2/cyclin A | P30305+P24941 | HTRF CDC25B-CDK2/CyclinA binding, anti-His/anti-Flag; stronger effect = higher value | z-score (no concentration beside the values) | actives 0.72% (n = 94,000);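 also: score is relative to mean and SD of negative controls; strong numbers were not always called active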
HIV TAR-Tat: TAR RNA-Tat peptide displacers, HIV-1, primary screen, biochemical, FRET, FAM/TAMRA-labeled Tat | HIV-1 TAR RNA, Tat peptide displacement FRET; stronger effect = higher value | z-score (no concentration beside the values) | actives 0.6% (n = 100,000);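 also: score is relative to mean and SD of negative controls; some compounds called inactive have numbers as strong as hits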
* marks the source's active call; other numbers are inactive results; · = not tested or not shown.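 The calls were made as follows: active = z-score from 3 up in half or more of its runs; inactive = the rest.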

SMILES	CDC25B CDK2 inh	HIV TAR-Tat
CCS(=O)(=O)Nc1cccc(CCc2nc3ccccc3n2C)c1	·	2.09
Cc1nn2c(=O)cc(CSc3ccccc3NC(=O)CSc3ccccc3)nc2s1	·	1.23
O=C(CC1S/C(=N\N=C\c2cccs2)NC1=O)Nc1ccc(Cl)c(Cl)c1 (configuration not stated)	-2.69	·
CCN(CC)CCCC(C)Nc1ncnc2c1cnn2C (configuration not stated)	·	2.32
Clc1ccc(-c2noc3ncnc(N4CCc5ccccc54)c23)cc1	·	0.63
Cc1c(NC(=O)Nc2ccc(F)cc2F)sc2nc3n(c(=O)c12)CCC(C)CC3 (configuration not stated)	-0.78	1.15
O=C1COc2cc(S(=O)(=O)CCC(=O)N3CCN(c4cccc(Cl)c4)CC3)c(Cl)cc2N1	·	2.46
CCCCN(C)S(=O)(=O)c1ccc2c(c1)N(C(C)=O)CCO2	-2.06	1.63
O=C1c2ccccc2S(=O)(=O)N1Cc1cccc2ccccc12	1.21	-0.09
CC(C)OCCCN1C(=O)c2cc3sccc3n2CC1(C)C(=O)NC1CCCC(C)C1C (configuration not stated)	-1.23	1.68
CCOc1cc(C2C(C(=O)OCc3ccc(OC)cc3)=C(C)NC3=C2C(=O)CCC3)ccc1O (configuration not stated)	-1.69	1.67
Cc1nc(N2CCOCC2)cc(N2CCN(C(=O)Nc3ccccc3Cl)CC2)n1	-1.62	0.09
O=S(=O)(NCc1nc(-c2ccc(Cl)cc2)no1)c1ccccc1	1.11	-4.29
Cc1cccc(CSc2nnc(Cn3c(=O)sc4ccccc43)n2C)c1	-1.74	·
O=c1cc(-c2ccccc2)[nH]c(=O)[nH]1	-0.96	·
CC1=C(C(=O)Nc2ccccc2)C(c2ccco2)C(C#N)=C(SCC(=O)Nc2ccc(F)cc2)N1 (configuration not stated)	-1.86	2.98
CCOC(=O)COc1ccc(C2NC(C(=O)O)CS2)cc1OCC (configuration not stated)	-2.15	·
Cc1ccccc1Nc1c(-c2cccc(Cl)c2)nc2cnccn12	-0.48	0.47
CCOC(=O)C1=CS/C(=C2/C(=S)C(C)(C)Nc3c(OCC)cccc32)S1	-1.73	0.14
CC(CC(=O)NC1CCCCC1)S(=O)(=O)c1ccc2c(c1)NC(=O)CO2 (configuration not stated)	·	0.97

The last 7 records of the part before come first, to join the parts.
SMILES	CDC25B CDK2 inh	HIV TAR-Tat
Cc1cccc(CSc2nnc(Cn3c(=O)sc4ccccc43)n2C)c1	-1.74	·
O=c1cc(-c2ccccc2)[nH]c(=O)[nH]1	-0.96	·
CC1=C(C(=O)Nc2ccccc2)C(c2ccco2)C(C#N)=C(SCC(=O)Nc2ccc(F)cc2)N1 (configuration not stated)	-1.86	2.98
CCOC(=O)COc1ccc(C2NC(C(=O)O)CS2)cc1OCC (configuration not stated)	-2.15	·
Cc1ccccc1Nc1c(-c2cccc(Cl)c2)nc2cnccn12	-0.48	0.47
CCOC(=O)C1=CS/C(=C2/C(=S)C(C)(C)Nc3c(OCC)cccc32)S1	-1.73	0.14
CC(CC(=O)NC1CCCCC1)S(=O)(=O)c1ccc2c(c1)NC(=O)CO2 (configuration not stated)	·	0.97
Cc1nc2nc(Cc3cccc(F)c3)[nH]n2c(=O)c1C	·	3.43
O=C(O)CCCN1CNC(=S)NC1	-1.11	·
Cc1ccn2cc(-c3ccc(Cl)cc3)cc2c1	-1.25	·
O=C(C1COc2cc(S(=O)(=O)Nc3ccccc3)ccc2O1)N1CCOCC1 (configuration not stated)	·	1.38
Cc1ccc(CN2CCN(C3CCN(C(=O)n4ccnc4)CC3)C(=O)C2=O)cc1	·	2.01
C=CCNC(=O)CCSCc1cnn(-c2ccccc2)c1-n1cccc1	-1.98	-0.28
Cn1c(=O)c2sccc2n2c(CCCC(=O)N3CCN(c4ccc(Cl)cc4)CC3)nnc12	·	0.19
Fc1ccccc1Nc1nc(NCc2ccco2)c2ccccc2n1	-3.21	·
CCCSc1nnc(NC(=O)c2sc(C)nc2C)s1	-0.84	1.87
COCCNC(=O)c1oc2c(c1C)-c1nc(C)sc1CC2	·	0.52
COc1ccc(N2CCN(Cc3cccn3-c3nnc(N4CCOCC4)s3)CC2)cc1	·	0.81
COc1cccc2c1OC(=O)C1C3CC(C4Sc5[nH]c(=O)sc5C2C34)C1C(=O)O (configuration not stated)	-1.81	·
Nc1ccc2oc(-c3ccccc3F)nc2c1	0.23	0.03
O=C(O)c1cc(-c2ccc3c(c2)OCO3)on1	·	1.07
CCOC(=O)c1ccc(-c2ccc(C3CC(=O)Nc4cc5c(cc43)OCCO5)o2)cc1 (configuration not stated)	3.17	0.18
Cc1nn2c(=O)cc(CSc3nnc(NC(=O)CC(C)C)s3)nc2s1	·	0.55
COc1ccc(N2CC(C(=O)O)CC2=O)cc1Cl (configuration not stated)	-0.57	0.64
O=C(CSc1nccn(-c2ccccc2)c1=O)Nc1ccc(Br)cc1	·	-0.31
CCN(CCCNS(=O)(=O)c1ccc2c(c1)C(C)(C)C(=O)N2C)c1ccccc1	·	1.29
Cc1cccn2c(=O)c3cc(C#N)c(=O)n(-c4nnc(SCc5ccc(Cl)cc5)s4)c3nc12	-41.2	-4.91
CCOc1ccccc1-n1nnc(S(=O)(=O)c2ccccc2)c1C	1.58	2.01
NC(=O)c1sc(-c2ccc(Cl)cc2)cc1NC(=O)C(Cl)Cl	-1.22	·
Cc1cc(-c2nnc(-c3cccc(C(F)(F)F)c3)o2)no1	-2.18	·
O=S(=O)(Cc1ccc(F)cc1)c1ccccc1	-0.38	·
Cc1nnc(NC(=O)CSc2nccn2-c2ccc(F)cc2)s1	-1.75	·
Cc1cc2n(n1)C(c1cccc(O)c1O)Nc1c(C)cccc1-2 (configuration not stated)	1.87	1.23
CN(CCc1ccccn1)c1ncnc2c1cnn2C	·	1.14
CC(C)c1nnc(N2C(=O)c3oc4ccccc4c(=O)c3C2c2cccc(O)c2)s1 (configuration not stated)	-0.23	-0.03
COc1ccc(NC(=O)CSCc2cc(=O)n3cc(C)sc3n2)cc1	·	1.32
CC(C)COC(=O)c1ccc(N2CC(O)=C(c3nc4ccccc4c(=O)[nH]3)C2=N)cc1	-2.92	1.01
COC(=O)CSc1ncn(-c2nc(C)cc(Oc3ccccc3)n2)n1	-2.07	0.91
Cc1ccc(C)c(NS(=O)(=O)c2ccc(-c3cc(C)no3)s2)c1	·	0.12
NC(=O)C1(N2CCCCC2)CCN(c2nc3ccccc3c3nc(-c4cccnc4)nn23)CC1	-4.36	·
CCN(C(=O)C1CCCN1S(=O)(=O)c1ccc(-c2ccc(=O)[nH]n2)s1)c1ccccc1 (configuration not stated)	·	1.6
O=C1C2C3C=CC(C3)C2C(=O)N1c1nccs1 (configuration not stated)	-0.88	·
Cn1cccc1C1=C(C#N)C(c2c(Cl)cccc2Cl)C(C#N)=C(N)O1 (configuration not stated)	-1.31	·
CC1(C)C(=O)NN(c2ccccc2)C1=O	0.27	0
CC1=C(c2ccccc2)S(=O)(=O)N=C1Nc1ccccc1Br	-5.8	0.25
Cc1ccc(C2CC(=O)N3CN(c4ccc(N(C)C)cc4)CSC3=C2C#N)cc1 (configuration not stated)	6.72*	-1.14
COc1ccc(-c2coc3cc4oc(=O)c5c(c4cc23)CCC5)cc1F	-2.55	·
O=C(Nc1nnc(SCc2cc(=O)c3ccccc3[nH]2)s1)c1cccs1	·	2.48
Cn1nnnc1SCCCNCc1ccccc1OCc1ccccc1	-0.03	1.51
C=CCN1C(=O)C2(c3ccccc31)c1c(oc3ccc(C)cc3c1=O)C(=O)N2CCO (configuration not stated)	-2.08	1.61
O=S1(=O)CCN(Cc2csc(-c3cccs3)n2)CC1	-1.28	·
Cc1ccc(NS(=O)(=O)c2ccc3c(c2)C(C)(C)C(=O)N3C)cc1	·	2.2
CN(C(=O)Cn1c(-c2nonc2N)nc2ccccc21)c1ccccc1	-0.55	-0.57
CC(C)Cn1c(-c2ccccc2F)n[nH]c1=S	0.81	·
Cc1cccc(NC(=O)CCc2c(C)nc3ncnn3c2C)n1	-1.32	·
Cc1cn(S(=O)(=O)c2ccc(F)cc2)cn1	-22.6	0.96
Cn1c(=O)c(=O)n(C)c2cc(S(=O)(=O)NCC3CCCO3)ccc21 (configuration not stated)	-0.81	·
CCN(CC)c1nc(Nc2ccc(Cl)cc2C)c2cnn(C)c2n1	·	2.16
Cc1cc(C)c2c3c(sc2n1)C(=O)N(Cc1ccccc1)C(C)N3 (configuration not stated)	0.29	-0.28
CCOC(=O)CSC1=C(C#N)C(c2ccc(C)cc2)CC(=O)N1 (configuration not stated)	-1.11	0.76
CCOc1cc(C2c3c(oc4ccc(F)cc4c3=O)C(=O)N2Cc2ccc(F)cc2)ccc1O (configuration not stated)	1.57	0.22
COCCn1c(CN2CCC(C)CC2)nc2c1c(=O)n(C)c(=O)n2C	0.07	·
O=C(CSc1nc(-c2ccccc2)[nH]c1S(=O)(=O)c1ccccc1)NCC1CCCO1 (configuration not stated)	-2.77	1.38
COC(=O)Cn1c(CCS(=O)(=O)c2ccc(Br)cc2)nc2ccccc21	-2.81	2.07
COc1ccccc1OCCSc1nnc(-c2ccc(Cl)cc2)o1	-0.99	0.01
CCOc1cc(/C=C2/SC(=S)N(C)C2=O)ccc1OCc1cccc(C)c1	-1.52	·
Cc1oc2ncnc(N3CCOCC3)c2c1C(=O)N1CCOCC1	·	0.82
(further entries)
SMILES	CDC25B CDK2 inh	HIV TAR-Tat
CN(Cc1ccccc1)S(=O)(=O)c1ccc2[nH]c3c(c2c1)CCCC3	·	-0.25
COc1ccc(Cl)cc1-c1noc(/C=C/c2ccccc2)n1	-1.23	1.39
OCc1cnc(SCCc2ccccc2)n1Cc1ccc(Cl)cc1	·	1.87
Cc1nc(NCCN(C)C)c2sc3nc4c(cc3c2n1)COC(C)(C)C4	-0.37	-0.82
O=C(Nc1cccc(Cl)c1)c1cnc2sc(N3CCOCC3)nn2c1=O	·	-0.28
CCOc1cccc2c1OC1(C)CC2NC(=O)N1c1cccc(F)c1 (configuration not stated)	-1.73	·
CCN(CC)C(=O)CN1C(=O)N(c2cc(F)ccc2F)S(=O)(=O)c2ccccc21	·	0.93
O=C(Nc1ccc(C(=O)NC2CCCCC2)cc1)C1=CSCCO1	·	2.86
COCCNc1nc(NCc2ccccc2Cl)c2cnn(C)c2n1	·	1.57
CCCNC(=O)C1CCN(c2nn3c(=O)c4c(nc3s2)CCCC4)CC1	·	1.18
CCN(c1ccccc1)S(=O)(=O)c1cc([N+](=O)[O-])ccc1N	2.9	·
O=C(NCc1cccs1)C1CCN(C(=O)c2ccc(-n3ccc4ccccc43)s2)CC1	·	1.09
CCS(=O)(=O)c1ncc(Cl)c(C(=O)N(Cc2ccc(F)cc2)C2CCS(=O)(=O)C2)n1 (configuration not stated)	-1.9	0.84
CCOc1ccc(C(c2c(C)[nH][nH]c2=O)c2c(C)[nH][nH]c2=O)cc1	-0.3	0.75
Cc1ccc(-n2ncc3c(NCC(C)C)ncnc32)cc1Cl	·	1.12
Cc1onc(-c2c(F)cccc2Cl)c1OCN1CCN(c2ncccn2)CC1	-1.1	·
CN(C)c1ccc(C(c2nnnn2CCOC(=O)Nc2ccc(Cl)cc2)N2CCOCC2)cc1 (configuration not stated)	-1.24	-1.16
Cc1cc(NC(=O)c2cc3c(=O)n4cccc(C)c4nc3n2C)ccc1Br	·	-2.19
CC1=C(C(=O)N2CCOCC2)C2(CCN(S(C)(=O)=O)CC2)OC1=O	·	1.15
O=C(NCC1CCCO1)c1c(O)c2ccccc2[nH]c1=O (configuration not stated)	-1.56	·

A draw from above in order of length of the SMILES, ascending:
SMILES	CDC25B CDK2 inh	HIV TAR-Tat
OCc1cnc(SCCc2ccccc2)n1Cc1ccc(Cl)cc1	·	1.87
O=C(NCC1CCCO1)c1c(O)c2ccccc2[nH]c1=O (configuration not stated)	-1.56	·
Cc1nc(NCCN(C)C)c2sc3nc4c(cc3c2n1)COC(C)(C)C4	-0.37	-0.82
CCN(c1ccccc1)S(=O)(=O)c1cc([N+](=O)[O-])ccc1N	2.9	·
CN(C)c1ccc(C(c2nnnn2CCOC(=O)Nc2ccc(Cl)cc2)N2CCOCC2)cc1 (configuration not stated)	-1.24	-1.16

New compounds follow
SMILES	CDC25B CDK2 inh	HIV TAR-Tat
CC(C)(C)NC(=O)c1ccc2snnc2c1	1.45	1.55
CCC(C)NC(=O)CCCc1cn(CC)c2ccccc12 (configuration not stated)	·	1.64
Cc1ccc2oc3c(c(=O)c2c1)C(c1ccccc1)N(CCCN1CCOCC1)C3=O (configuration not stated)	-1.9	0.58
CCCCOC(=O)c1cccc(NC(=O)COc2ccc3c(C)cc(=O)oc3c2)c1	-22.8	·
COCCCNC(=O)c1cccn2c(=O)c3c4c(sc3nc12)CCCC4	·	0.01
CN(CCCNC(=O)Cn1ncc2c3ccccc3n(C)c2c1=O)C1CCCCC1	-2.35	-0.64
c1nc(N2CCN(Cc3ccc4c(c3)OCO4)CC2)c2c3c(sc2n1)CCCC3	-1.84	0.26
Cc1ccc(-c2noc(-c3nnn(-c4cccc(C)c4C)c3N)n2)cc1	·	-2.03
C=CCn1c(SCC(N)=O)nc2sc(CC)cc2c1=O	-1.04	·
Cn1c(=O)c2c(SCC(=O)N3CCCC3)nc(-c3ccco3)nc2n(C)c1=O	-2.13	·
O=C(c1ccc(CS(=O)c2ccc(Cl)cc2)o1)N1CCN(C2CCCCC2)CC1 (configuration not stated)	·	1.96
CCCCc1ccc(-n2nc3ccc(N)cc3n2)cc1	-0.06	-0.76
COc1ccc(OC)c(CCNc2nc3cc(OC)c(OC)cc3c3nc(-c4cccnc4)nn23)c1	-2.55	1.97
Cc1ccc(NCc2cccc3c2CN(CC2CCCO2)C3)cc1C (configuration not stated)	0.02	-1.02
CCN(Cc1ccccc1)C(CNS(=O)(=O)c1ccccc1)c1ccccc1 (configuration not stated)	-1.32	0.65
O=C(c1cc(S(=O)(=O)N2CCCCC2)c[nH]1)N1CCCc2ccccc21	·	2.44
